Ecoli growth = blocks Escherichia coli growth. AID 1053175. OD600, 23 h; hits give low values. OD600 absorbance (concentration not given with the values). 0.21% of 330,000 active;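 active = OD600 absorbance below the run mean of sample wells minus 3.6 SD, in any replicate, cut at about 0.56 in these data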;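 note: stock transfer was 300 nL into about 60 µL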
FGF22 binding = binders of recombinant human FGF22 by thermal shift. Q9HCT0. SYPRO orange fluorescence; percent of sucrose octasulfate shift, DMSO zero. calls only at 9.99 µM. 1.5% of 340,000 active. AID 651658;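 active = melting point raised past a set limit in the mean and every replicate; inconclusive = no clear call; three in four hits are not shown here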
Target sequence (Q9HCT0 whole entry, looked up): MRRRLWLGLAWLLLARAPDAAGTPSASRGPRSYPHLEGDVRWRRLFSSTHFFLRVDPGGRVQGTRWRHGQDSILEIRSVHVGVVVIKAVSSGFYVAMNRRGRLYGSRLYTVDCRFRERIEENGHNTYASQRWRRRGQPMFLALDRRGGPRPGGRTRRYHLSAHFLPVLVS
Vif A3G = inhibitors of Vif binding to APOBEC3G peptide, primary screen, biochemical, TR-FRET, GST-Vif 1-94, biotin-A3G peptide, dose response retest (AID 1117319) | TR-FRET GST-Vif / biotin-A3G peptide binding; higher % means a stronger effect; test concentration not given here; strong numbers were not always called active | one-dose inhibition, %; IC50 in µM for titrated hits | 0.57% of 260,000 active;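 active = above the screen mean plus three standard deviations and confirmed in dose response; inconclusive = results disagree or hit not tested in dose response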;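 note: Vif residues 1-94 fused to GST binding biotinylated APOBEC3G peptide 110-148; 0% = full assay without inhibitor and 100% = GST in place of GST-Vif; retest series ran down from 100 µM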
RanGTP-Impb inh = inhibitors of RanGTP-importin-beta interaction, primary screen, biochemical, FRET, CFP-Ran, YFP-importin-beta, homogeneous. inhibition, % (no concentration beside the values). 1.1% of 300,000 active. cell-free CFP-Ran/YFP-importin-beta FRET ratio;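 active = most replicates above 15%; inconclusive = exactly half above 15%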;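 note: 0% = DMSO wells and 100% = Ran loaded with GDP instead of GTP; wells of about 40 µL received 100 nL stock; the first replicate is given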
UCH37 DUB inh = inhibitors of human deubiquitinating enzyme UCH37. AID 588478. inhibition, % (test concentration not listed). purified proteasome/UCH37, Ub-AMC cleavage fluorescence. Q9Y5K5. 0.33% of 330,000 active;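 active = mean of two replicates above 20%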;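 note: 0% = compound-free wells with enzyme and 100% = wells lacking proteasome; stock transfer was 100 nL into about 20 µL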
Target sequence (Q9Y5K5 whole entry, looked up): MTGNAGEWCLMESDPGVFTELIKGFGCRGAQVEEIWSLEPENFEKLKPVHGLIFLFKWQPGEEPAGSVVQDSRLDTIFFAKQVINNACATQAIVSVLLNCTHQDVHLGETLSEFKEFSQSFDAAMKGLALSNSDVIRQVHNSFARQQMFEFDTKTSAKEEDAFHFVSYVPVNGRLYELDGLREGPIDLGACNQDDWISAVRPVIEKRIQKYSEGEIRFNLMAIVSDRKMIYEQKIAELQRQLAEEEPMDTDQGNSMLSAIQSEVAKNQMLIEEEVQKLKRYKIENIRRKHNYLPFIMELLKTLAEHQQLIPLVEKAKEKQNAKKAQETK
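Assay system: Proteasome-bound UCH37. Buffer or medium: pH 7.4 Tris-HCl (50 mM) with ovalbumin, ATP-MgCl2, DTT. Incubation: 30 min preincubation with enzyme, 25 min cleavage at room temperature. Measured by: fluorescence, ex 355 nm, em 460 nm. Read-out basis: percent inhibition. Control set: wells without proteasome as full block, compound-free enzyme plus substrate as uninhibited.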
AF4-AF9 inh = MLL-AF4/AF9 protein interaction inhibition. AlphaScreen, biotin-AF4 peptide binding to FLAG-AF9. inhibition, % at 10 µM. 0.47% of 350,000 active;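 active = every replicate reaching a set inhibition limit, whatever the replicate mean, cut at about 25% in these data; inconclusive = mean inhibition reaches that limit but some replicates miss it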;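 note: 0% = plate neutral control median and 100% = total signal loss; the record names both 10 and 1 µM as test concentration; the first replicate is given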
HNF4A DNA FP = change in binding of human HNF4 alpha to DNA | AID 1224865 | HNF4a-FITC DNA binding, fluorescence polarization, 1 h | P41235 | activity change, % at 10 µM | 0.3% of 360,000 active; in the data active = activity change above about 30%, passing the limit was not always enough;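 note: controls were the assay level and a saturating level of protein; the project sought stronger binding though the title names inhibitors; some compounds called inactive have numbers as strong as hits; positive values seem to mean higher polarization but the record does not say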
Target sequence (P41235 whole entry, looked up): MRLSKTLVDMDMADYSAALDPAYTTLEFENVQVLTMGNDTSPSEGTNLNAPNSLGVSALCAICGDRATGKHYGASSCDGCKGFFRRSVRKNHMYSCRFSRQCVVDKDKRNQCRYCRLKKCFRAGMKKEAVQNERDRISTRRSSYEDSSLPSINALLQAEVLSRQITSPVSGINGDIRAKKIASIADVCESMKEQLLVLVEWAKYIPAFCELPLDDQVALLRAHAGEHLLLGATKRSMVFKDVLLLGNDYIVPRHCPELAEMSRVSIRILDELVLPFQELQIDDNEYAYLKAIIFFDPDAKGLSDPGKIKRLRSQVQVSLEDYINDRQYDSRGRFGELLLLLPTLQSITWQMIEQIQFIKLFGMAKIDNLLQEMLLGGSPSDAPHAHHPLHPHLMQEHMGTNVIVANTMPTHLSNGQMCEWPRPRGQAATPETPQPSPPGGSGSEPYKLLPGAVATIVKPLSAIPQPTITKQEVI
* hit, by the source's call; i = inactive; u = inconclusive; x = no result given; & = joins results of further samples. These rows are one share of the data, so the mix of outcomes need not match the whole.

canonical_smiles,Ecoli growth,FGF22 binding,Vif A3G,RanGTP-Impb inh,UCH37 DUB inh,AF4-AF9 inh,HNF4A DNA FP
O=C1CCCc2cc3c(ccc4ccccc43)cc21,0.68,i,-3%,x,-0.7,-6.3,1.6
O=C(COc1ccccc1Cl)N1CCN(c2ccc(F)cc2)CC1,0.72,x,-2%,-2.9,2.5,x,-0.6
O=C(COc1ccc(/C=N/NC(=O)c2ccccc2O)cc1)Nc1ccc([N+](=O)[O-])cc1,x,i,-2%,-2.6,x,0.8,-4.1
Cc1onc(-c2ccccc2Cl)c1C(=O)OCc1nnc(-c2ccccc2)o1,0.68,i,x,4.1,2.0,11,3.1
O=C(O)c1cccc(NS(=O)(=O)c2cccc3nsnc23)c1,0.68,i,-3%,-4.4,7.8,-4.8,0.8
Cc1c(Cl)ccc2c(C(=O)NCCN3CCCCC3)cc(-c3ccccn3)nc12,0.7,i,x,3.6,-1.7,10,3.5
COc1ccc(C(=O)Nc2nc3ccccc3[nH]2)cc1S(=O)(=O)N1CCCC1,0.7,x,6%,1.2,1.8,x,-0.8
CCN(CC)CC(=O)NCC1(c2ccccc2)CCOCC1,0.74,x,3%,3.4,-0.9,x,-3.6

Single values from the entries so far.
In Vif A3G, O=C1CCCc2cc3c(ccc4ccccc43)cc21 is listed with -3%
In AF4-AF9 inh, O=C(COc1ccc(/C=N/NC(=O)c2ccccc2O)cc1)Nc1ccc([N+](=O)[O-])cc1 is listed with 0.8

Further results
canonical_smiles,Ecoli growth,FGF22 binding,Vif A3G,RanGTP-Impb inh,UCH37 DUB inh,AF4-AF9 inh,HNF4A DNA FP
COC(C(=O)Nc1cc([N+](=O)[O-])ccc1C)c1ccccc1 (stereo not drawn),0.65,i,-4%,-1.0,3.4,0.7,-1.8
C/C(=N\Nc1cccc(Cl)c1)c1ccncc1,x,i,-5%,-1.4,x,1.0,1.0
O=C(c1ccccc1)[C@H]1CC=CC[C@H]1C(=O)O,0.72,x,1%,6.3,-1.2,x,5.2
C/C(=N\NC(N)=O)c1cccc(Cl)c1,x,i,x,-0.7,x,5.1,1.7
CCCC1C2C(=O)N(c3ccccc3OCC)C(=O)C2ON1c1ccccc1 (stereo not drawn),0.69,x,27%,-0.4,2.7,x,-0.1
NNC(=O)c1ccc(Cn2cc(Cl)cn2)o1,0.64,i,5%,2.4,1.6,-1.1,-1.3
NC(=O)c1noc(C(=O)N(CC(=O)NC2CCCC2)Cc2ccc3c(c2)OCO3)c1N,0.73,x,3%,x,3.4,x,0.6
Cc1ccc(C)c(NC(=S)NCc2ccc3c(c2)OCO3)c1,0.69,x,u,-7.2,1.4,x,-5.5
Cn1cccc1/C=N/NC(=O)c1ccn[nH]1,x,x,u,-5.0,x,x,-0.9
O=C(O)CCC(=O)N1CCN(S(=O)(=O)c2ccc3ccccc3c2)CC1,0.69,i,x,3.8,3.3,0.7,1.7
C[C@@H]1CN([C@@H](C)CO)C(=O)c2cccc(NC(=O)Nc3ccc(F)cc3)c2O[C@@H]1CN(C)Cc1ccc(Oc2ccccc2)cc1,x,i,x,x,x,2.2&-3.2,0.2
COc1ccc(S(=O)(=O)N2CCCCC2)cc1NC(=O)CCOc1cc(C)ccc1C,0.67,i,x,x,3.0,-3.3,-0.6
CC12CCC(=O)N1C(C(=O)Nc1ccccc1N1CCCCC1)CS2 (stereo not drawn),0.66,i,1%,x,0.4,4.6,2.0
O=C(NC1CC1)C1CCN(C2CCN(Cc3ccccc3C(F)(F)F)CC2)CC1,0.69,i,4%,2.7,5.1,-0.8,3.0
CCOc1ccc(OCc2ccc(C(=O)Nc3ccc(Cl)cn3)o2)cc1,0.68,x,22%,3.3,-2.7,0.2,6.4
COc1ccccc1NC(=O)CCn1cccc1,0.7,x,2%,-1.3,3.5,x,-1.0
CCC(=O)Nc1ccc(C(=O)Nc2ccc3c(c2)OCO3)cc1,0.72,x,-2%,-0.6,0.0,x,-2.8
O=C(CC1C(=O)NCCN1Cc1ccc(Cl)c(F)c1)NCCc1cccnc1 (stereo not drawn),0.68,i,u,-0.7,-3.1,1.5,-6.1
O=C(NNC(=O)C(c1ccccc1)c1ccccc1)c1ccccc1O,x,i,10%,x,x,11,-6.0
Cc1ccc(NC(=O)c2cnccn2)cc1S(=O)(=O)N(C)C,0.72,i,-8%,1.5,2.2,2.6,0.9
C1=NN(c2ccccc2)C=NN1c1ccccc1,x,i,-4%,x,x,-0.9,0.6
Cc1cc(C(=O)COC(=O)c2nc3nccc(C)n3n2)c(C)n1CC1CCCO1 (stereo not drawn),0.7,i,x,21*,3.8,1.2,1.6
Cc1ccnc(NC(=O)CCC(=O)N(CC(=O)NCc2ccccc2)Cc2cccs2)c1,0.69,x,x,-0.8,1.1,-1.6,4.5
COc1ccc(NC(=O)C2=C(C)C(=O)OC23CCC(C)CC3)c(OC)c1 (stereo not drawn),0.77,i,0%,1.2,-0.8,6.4,2.0
CC(=O)c1ccc(S(=O)(=O)Nc2cccc(-c3ccc4nncn4n3)c2)cc1,0.7,x,-9%,-1.6,0.3,x,-0.8
CN(C)S(=O)(=O)c1ccc(S(=O)(=O)N(CC(=O)Nc2ccccc2)Cc2ccco2)cc1,0.78,x,1%,0.4,3.7,x,0.2
CCn1c(/N=C/c2ccc(OC)cc2O)nc2ccccc21,x,i,x,1.4,x,-3.0,-1.5
CC(C)NC(=O)N(C)C[C@H]1Oc2ccc(NS(=O)(=O)c3ccccc3)cc2C(=O)N([C@H](C)CO)C[C@@H]1C,x,i,x,x,3.6,1.0,-2.4
COc1ccc(N(CC(=O)NCc2ccccc2OC)S(=O)(=O)c2ccccc2)cc1,0.64,i,x,2.1,1.5,-5.3,5.7
CC(=O)Nc1ccc(NC(=O)CSc2n[nH]c(-c3cccs3)n2)cc1,0.66,i,-5%,1.2,-0.8,2.0,0.0
COC(=O)c1c(NC(=O)/C=C/C(=O)O)sc(C)c1-c1ccc(C(C)C)cc1,0.64,x,x,-0.7,6.4,-1.6,-6.7
COc1cccc(NC(=O)c2ccnc(N3CCC(C(=O)NCc4cc(OC)ccc4OC)CC3)c2)c1,0.7,x,-3%,-0.9,-24,x,-2.7
CC(C)(C)c1ccc(S(=O)(=O)NC(=O)C2(C)CCN2C(=O)Cc2cc(F)ccc2F)cc1 (stereo not drawn),x,i,x,x,x,-1.8,3.8
COC(=O)COc1ccc2c(-c3cccc([N+](=O)[O-])c3)cc(=O)oc2c1,0.75,x,3%,2.2,-0.3,x,-0.9
COc1ccc(C(=O)Sc2ccc(C)cc2)cc1OC,0.73,x,6%,0.6,5.2,x,-1.2
CCCC[C@@H]1CN=C(N)N1CCc1cccc(F)c1,x,x,x,-1.8,0.8,x,1.2
COc1cccc(CN2CCNC(=O)C2CC(=O)NCCc2cccc(C)n2)c1OC (stereo not drawn),0.67,i,8%,1.7,-1.6,-1.4,0.5
CN1C(=O)c2cccc3c(Cl)ccc(c23)C1=O,0.71,x,u,-0.6,-121,x,-5.6
O=C(NCCCCNC(=O)c1c(Cl)cccc1Cl)c1c(Cl)cccc1Cl,0.69,i,x,-5.4,2.2,-2.2,3.0
Cc1ccccc1Nc1nnc(SCC(=O)NCc2cccs2)s1,0.71,x,0%,-3.5,1.0,x,-0.7
O=C(O)c1cc2c(s1)CCCC2,0.71,x,u,-1.0,4.1,x,0.8
O=C(COc1nnnc2ccccc12)N1CCCc2ccccc21,0.73,x,1%,2.9,2.1,x,-0.8
CC(C)n1cnc2cc(NC(=O)c3ccco3)ccc21,0.68,i,x,6.2,1.9,-2.2,3.1
CN(CCC#N)C(=O)Cn1nc(Cc2ccncc2)c2ccccc2c1=O,0.75,i,0%,-6.3,1.4,0.0,3.5
CN(C)S(=O)(=O)c1cccc(C(=O)OCC(=O)N2CCCC2=O)c1,0.72,i,x,-2.6,1.3,1.3,-1.2
S=c1[nH]nc(COc2ccccc2)n1/N=C/c1ccccn1,x,x,6%,u,x,x,1.1
COc1ccc(NC(=O)c2sc3ncn(CC(=O)N4CCN(c5ccccn5)CC4)c(=O)c3c2C)c(OC)c1,0.72,i,x,5.5,-43,-2.6,0.8
COc1cccc(NC(=O)C(OC(=O)/C=C/c2ccc3c(c2)OCO3)c2ccccc2)c1 (stereo not drawn),0.75,x,1%,2.7,-26,x,1.0
COC(=O)c1sc2nc(SCc3cccc(F)c3)n(N)c(=O)c2c1C,0.75,x,u,-3.4,-65,x,0.4
CCOC(=O)c1cnc2ccc(OC)cc2c1NCCc1ccc(OC)c(OC)c1,0.68,x,5%,0.9,-9.5,x,1.0
CCC1(CCC(C)C)SC(N)=NC1=O (stereo not drawn),0.68,i,1%,x,4.2,-2.8,-3.6
C[C@H](CO)N1C[C@H](C)[C@@H](CN(C)S(=O)(=O)c2cccs2)Oc2c(NC(=O)Nc3ccc4c(c3)OCO4)cccc2C1=O,x,i,x,x,7.6,0.1&-2.8,-1.8
COc1ccc(CCN2CC(C(=O)NCCc3ccc(C(F)(F)F)cc3)CCC2=O)cc1 (stereo not drawn),0.67,i,x,2.3,6.5,-1.1,-2.2
Cc1nnc(NC(=O)CSc2ncnc3scc(-c4ccccc4)c23)s1,0.75,x,26%,1.9,3.9,x,-0.3
CCCCNc1c(-c2cccnc2)nc2nc(C)cc(C)n12,x,i,x,x,x,-5.7,1.0
COc1cccc(NC(=S)N/N=C2\CC(C)(C)Oc3ccc(O)cc32)c1,x,i,23%,1.2,x,14,-1.6

(continued)
canonical_smiles,Ecoli growth,FGF22 binding,Vif A3G,RanGTP-Impb inh,UCH37 DUB inh,AF4-AF9 inh,HNF4A DNA FP
Cc1cccc(-c2noc(CCC(=O)N3CCN(c4cc(C)ccc4C)CC3)n2)c1,0.72,i,-3%,x,3.9,-1.5,1.3
COc1ccc(Cl)cc1C(=O)NNC(=O)c1ccncc1,0.69,i,29%,-0.8,8.2,-0.5,2.9
CC(C)C[C@H](NC(=O)Nc1ccc(Oc2ccccc2)cc1)C(=O)O,0.71,x,4%,-2.0,1.5,x,3.5
CCOC(=O)C1(C)CCN1C(=O)COc1ccccc1 (stereo not drawn),x,i,x,x,x,-2.2,0.6
CCOc1ccc(N2CC(C(=O)N3CCc4ccccc43)CC2=O)cc1 (stereo not drawn),0.65,i,x,-2.1,2.2,-0.2,0.8
O=S1(=O)N[C@@H](Cc2ccccc2)COc2ccc(Cl)cc21,x,i,-3%,x,x,0.5,3.0

Bioassay records (PubChem)
